# Anaer choline gr: blocks anaerobic gram-negative growth on choline; Gram-negative bacterium anaerobic choline minimal medium, absorbance growth; hits give low values; many inactives read as strong as hits in the columns shown; 55,000 compounds, 0.2% hits; calls only;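 active = growth z-score on choline under -2 at 7 or 20 h with little or no fall on glycerol, limits in tiers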;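 also: stock transfer was 300 nL into about 50 µL; the organism is E. coli; final concentration not given here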
# Anaer choline gr early: recorded beside Anaer choline gr, whose call it bears; z-score; measured here: choline growth z-score, timepoint 1;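 score of optical density at 7 h as mean of two plates; lower means less growth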
# * hit, by the source's call; i = inactive; & = joins results of further samples. These rows are one share of the data. The share of hits here may be higher or lower than overall.
item	SMILES	Anaer choline gr	Anaer choline gr early
1	CCOc1ccc(N2C(=O)CN(Cc3ccccc3OC)[C@H]3CS(=O)(=O)C[C@H]32)cc1	i	1
2	CCCc1c(C(=O)OCC)nnc2c(-c3ccc(OC)cc3)c(C)nn12	i	0.52
3	Cc1ccc(C(=O)Nc2ccc3n[nH]nc3c2)cc1	i	-4.1
4	Cc1ccnc(SCC(=O)N2CCCN(c3ccc(=O)n(-c4ccccc4)n3)CC2)n1	i	-0.87
5	COC(=O)c1cn(-c2ccccc2)nc1N	i	-0.12
6	CCc1cccc(NC(=O)Cn2nc3c(Sc4ccccc4)nccn3c2=O)c1	i	0.17
7	COc1cccc(OC(=O)CSc2nc(-c3ccccc3)nc3cc(=O)[nH]n23)c1	i	-2.2
8	COc1ccc2cc3c(nc2c1)N(S(=O)(=O)c1cc(C)c(OC)cc1C)CC3	i	-0.68
9	CNC(=O)C1CCCN(c2nc3ncn(CC(=O)NC(C)C)c(=O)c3s2)C1 (stereo not given)	i	0.92
10	COC(=O)c1c(C)[nH]c(C(=O)N2CCC(CC(=O)NCCc3c[nH]c4ccccc34)CC2)c1C	i	0.09
11	CC(c1ccccc1)n1c(C2CCCO2)nc2ccccc21 (stereo not given)	i	-0.22
12	O=C(NC1CC1)C1CCCN(c2ccc(Sc3ccc(Br)cc3)nn2)C1 (stereo not given)	i	0.61
13	Cc1ccc(C(=O)Nc2ccc(-c3nc(C)no3)cc2)cc1	i	-0.14
14	CCC(C)[C@H]1O[C@]2(C=C[C@@H]1C)C[C@@H]1C[C@@H](C/C=C(\C)[C@@H](OC3C[C@H](OC)C(O[C@H]4C[C@H](OC)[C@@H](NC(C)=O)[C@H](C)O4)[C@H](C)O3)[C@@H](C)/C=C/C=C3\CO[C@@H]4[C@H](O)C(C)=C[C@@H](C(=O)O1)[C@]34O)O2 (stereo not given in full)	i	0.2
15	COc1ccc(N2C(=O)CCC(C(=O)N3CCC(Cc4ccccc4)CC3)C2c2ccc(F)cc2)cc1 (stereo not given)	i	0.68
16	O=C(c1noc2c1CCc1sccc1-2)N1CCN(c2ccccn2)CC1	i	-0.48
17	Cc1cc(C(=O)N2CCN(C)CC2)on1	i	-0.64
18	Cc1cc(N2CCCC2)nc(Nc2ccc(NC(=O)C3CCCC3)cc2)n1	i	1.4
19	COc1ccc(CCN2N=NC3C(=O)N(c4ccc(OC)c(Cl)c4)C(=O)C32)cc1 (stereo not given)	i	-0.29
20	O=S(=O)(c1cn(Cc2noc(Cc3ccc(F)cc3)n2)cn1)N1CCCCC1	i	0.92
21	COC(=O)c1ccccc1NC(=O)CSc1nnc2[nH]c(=O)c(C)nn12	i	0.57
22	CCC(=O)Nc1cccnc1-c1ccc(C(=O)Nc2ccc(Cl)cc2)cc1	i	-1.3
23	CC(Oc1ccccc1)C(=O)N1CCc2c(c(C(=O)NCc3ccccc3)nn2C)C1 (stereo not given)	i	0.45
24	COc1ccc2[nH]cc(CCN3CC(C(=O)Nc4ccc(Br)cc4)CC3=O)c2c1 (stereo not given)	i	-0.24
25	Cc1ccc(CNC(=O)C2(C)CCCN(C(=O)Nc3ccc(Br)cc3F)C2)cc1 (stereo not given)	i	0
26	Cc1cc(NC2CCCCC2)n2nc(C(F)(F)F)c(-c3ccc(F)cc3)c2n1	i	0.55
27	O=C(C1CCC1)N1CCCN(c2nc3cc(Cl)ccc3n3cccc23)CC1	i	-0.32
28	COc1ccc(S(=O)(=O)N2CCN(Cc3ccccc3)CC2)cc1-c1noc(C(C)(C)C)n1	i	0.78
29	Cc1ccccc1-c1noc(CSc2nc3cc4c(cc3c(=O)n2Cc2ccccc2)OCO4)n1	i	1.4
30	O=c1ccn(-c2ccc(F)c(F)c2)nc1-c1nc(-c2ccc3c(c2)OCO3)no1	i	-0.77
31	CN1CCN(C2(CNC(=O)c3cccs3)CCCCC2)CC1	i	0.11
32	COCc1nc2ccccc2n1CC(=O)N(c1ccccc1)C(C)C	i	0.49
33	Cc1nc2ccccc2c2c1C(=O)N(c1ccc(C(=O)OC(C)C(=O)c3ccccc3)cc1)C2=O (stereo not given)	i	-0.62
34	CCCn1c(=O)c2ccc(C(=O)NC(C)C)cc2n2c(=O)n(CC(=O)Nc3ccc(C)cc3)nc12	i	0.55
35	CN(CCCNC(=O)CC1CCN(S(=O)(=O)c2ccccc2)CC1)C1CCCCC1	i	0.27
36	CCN(CC)C(=O)CSc1nc2cc(-c3ccccc3)[nH]c2c(=O)n1Cc1ccccc1	i	0.23
37	Cc1ccc(-c2c(NCc3ccccn3)c(=O)c2=O)cc1	i	-0.17
38	COc1cccc(Cn2nnc3cc(C(=O)NCc4cccc(Cl)c4)ccc32)c1	i	2.6
39	O=C(O)c1cnc(N2CCOCC2)c(NS(=O)(=O)c2ccccc2)c1	i	0.21
40	Cc1nc2nc3c(c(NCCC4=CCCCC4)n2n1)CCCC3	i	-0.56
41	Cc1ccccc1Cn1nnc2cc(C(=O)N3CCN(c4ccccn4)CC3)ccc21	i	-0.48
42	CCc1cc(=O)[nH]c(Nc2ccc(OC)c(Cl)c2)n1	i	-1.4
43	Cc1ccc(-c2nn(C(C)C(=O)Nc3c(C)cccc3C)c(=O)c3c2CCCC3)cc1 (stereo not given)	i	-1.8
44	COC(=O)c1c(C)[nH]c(C(=O)N2CCC(CC(=O)N3CCN(c4cccc(C)c4)C(C)C3)CC2)c1C (stereo not given)	i	-0.19
45	Cc1[nH]c(C(=O)Nc2ccc(F)c(Cl)c2)c(C)c1S(=O)(=O)N1CCCCC1	i	2
46	Clc1ccc(Cl)c(-c2ccc(CNCc3ccncc3)o2)c1	i	-0.78
47	O=C(NCc1ccc2c(c1)OCO2)C1CCN(c2cc(-c3cccc(F)c3)ncn2)CC1	i	-0.14
48	Cc1nnc2ccc(N3CCC(C(=O)NCc4ccccc4)CC3)nn12	i	-1.3
49	CN(C)c1ccc(C(CNC(=O)c2ccccc2Cl)N(C)C)cc1 (stereo not given)	i	-0.46
50	O=C1COc2ccc(S(=O)(=O)N3CCCC(C(=O)N4CCCCC4)C3)cc2N1 (stereo not given)	i	-0.39
51	Cc1c(Cl)cccc1NC(=O)CCCn1nc(C)c2nn(-c3ccccc3)c(-n3cccc3)c2c1=O	i	0.36
52	Cc1cc(C)cc(N2C(=O)CN(C3CCCC3)[C@H]3CS(=O)(=O)C[C@H]32)c1	i	0.78
53	CCc1ccc(NC(=O)N2CCC(c3nnc(C(=O)Nc4ccc(OC)cc4)s3)CC2)cc1	i	0.2
54	O=C(NCCC1=CCCCC1)C1CCCN(C(=O)c2cc(-c3ccccn3)n[nH]2)C1 (stereo not given)	i	0.76
55	COc1ccc(Cn2nc3c(S(=O)(=O)N4CCOCC4)cccn3c2=O)cc1F	i	-0.55
56	CCc1nnc(C(=O)Nc2cccc(C(=O)NC(C)CC)c2)s1 (stereo not given)	i	0.43
57	CC(=O)N(c1ccc(C)cc1)C1C=CS(=O)(=O)C1 (stereo not given)	i	0.1
58	CC(=O)Nc1nc(N2CCC(C(=O)NC3CCCC3)CC2)sc1C(=O)N1CCCC1	i	-0.87
59	Cc1cc(OCc2nc(CC(=O)NC3CC3)cs2)ccc1Cl	i	-0.33
60	CCC(C(=O)Nc1cc(F)c2nc(N3CCCC3)ccc2c1)c1ccccc1 (stereo not given)	i	0.67

# Next section.
item	SMILES	Anaer choline gr	Anaer choline gr early
61	O=C(Nc1nc(-c2ccccc2)ns1)c1ccccc1	i	-0.71
62	CC(C)OCCCN1C(=O)c2ccc(-c3ccccc3)n2CC1(C)C(=O)NC1CCCCC1 (stereo not given)	i	-0.53
63	Cc1ccc(NC(=O)Cn2c(=O)c(CCC(=O)NC3CCCC3)nc3ccccc32)c(C)c1	i	1.1
64	Cc1noc(C)c1C1CCCN1S(=O)(=O)c1ccc2c(c1)OCCO2 (stereo not given)	i	0.16
65	COc1ccc(N2CCN(S(=O)(=O)c3cc(-c4nc(C(C)C)cs4)sc3C)CC2)cc1	i	0.48
66	Cn1cc(C(=O)Nc2cccc(Br)c2)c2[nH]c(=O)n(-c3ccc(Cl)cc3)c(=O)c21	i	0.33
67	CCOC(=O)c1cc2ccsc2n1CC(=O)Nc1ccc(OC)c(OC)c1	i	-0.02
68	O=c1[nH]c2ccc(S(=O)(=O)Nc3ccc(N4CCOCC4)cc3)cc2[nH]1	i	-0.95
69	O=C(Nc1ccc(SCc2nnc(-c3ccccc3)o2)cc1)c1ccc2c(c1)OCO2	i	1.6
70	CCc1nc2ccc(CCC(=O)NCCCc3ccccc3)cc2[nH]1	i	-0.3
71	Cc1cc(-c2cc(S(=O)(=O)N3CCCC3)c(C)s2)on1	i	0.77
72	CCOC(=O)CNC(=O)Cn1c(-n2nc(C)cc2C)nc2c(c1=O)CCCC2	i	0.92
73	CN(C)S(=O)(=O)c1ccc(-c2nc(C#N)c(NC3CC3)o2)cc1	i	-0.62
74	COC(=O)c1sccc1NC(=O)CN1CCCN(Cc2cc(C)ccc2C)S1(=O)=O	i	0.04
75	O=C(CCC(=O)N1CCSc2ccccc21)N1CCN(c2cccc(Cl)c2)CC1	i	1.5
76	O=C(Cn1nc2n(CCc3ccccc3)c(=O)c3ccccc3n2c1=O)c1ccc(F)cc1	i	-0.62
77	COc1cc(OC)cc(N2C(=O)c3cc(C(C)(C)C)nn3CC2(C)C(=O)NC2CCCCC2)c1 (stereo not given)	i	-0.23
78	O=C(Nc1cnc2oc(-c3ccccc3)nn2c1=O)c1ccccc1Cl	i	0.72
79	CCCc1cc(C2CCCN2Cc2ccc(OCC)c(OC)c2)no1 (stereo not given)	i	0.6
80	O=C(NC1CCCCC1)N1CCc2cc(S(=O)(=O)N3CCc4ccccc43)ccc21	i	0.93
81	O=C(O)c1cc(N2CCN(c3ccccc3F)CC2)nc2ccc(NC(=O)C3CCCC3)cc12	i	-0.01
82	CC(C)N=C(N)/N=C(\N)Nc1ccc(Cl)cc1	i	0.4
83	Cc1ccc(-c2noc3c(NCc4ccc5c(c4)OCO5)ncnc23)cc1	i	2
84	O=c1cc(-c2ccccc2)[nH]c2nc(Cl)ccc12	i	-0.34
85	CCCCC/C=C\C=C\[C@H](O)CCCCCCCC(=O)O	i	0.16
86	Cc1ccc(-c2nccc(Oc3ccc(C(=O)NC(C)c4ccc(C)cc4)cc3)n2)cc1 (stereo not given)	i	0.17
87	COc1ccc(-c2noc(N3CCC(C(=O)NCCN4CCOCC4)CC3)n2)cc1OC	i	-1.6
88	COc1cc(-c2cc(OC)c3c(C)oc(C)c3c(=O)c2)ccc1OC(=O)c1ccc(C)cc1	i	0.31
89	CCC(C(=O)Nc1cccc(C)c1)n1nc(-c2ccccc2)c2c(c1=O)CCCC2 (stereo not given)	i	0.84
90	Cn1c(=O)c2nc(S(=O)(=O)CCC(=O)O)n(Cc3ccccc3)c2n(C)c1=O	i	-0.57

# Sorted by heavy-atom count (lowest first): 3 of the compounds above
item	SMILES	Anaer choline gr	Anaer choline gr early
74	COC(=O)c1sccc1NC(=O)CN1CCCN(Cc2cc(C)ccc2C)S1(=O)=O	i	0.04
62	CC(C)OCCCN1C(=O)c2ccc(-c3ccccc3)n2CC1(C)C(=O)NC1CCCCC1 (stereo not given)	i	-0.53
81	O=C(O)c1cc(N2CCN(c3ccccc3F)CC2)nc2ccc(NC(=O)C3CCCC3)cc12	i	-0.01

# (more compounds)
item	SMILES	Anaer choline gr	Anaer choline gr early
91	CC(C)c1ccc(NC(=O)CSc2ccc(NCc3ccc(Cl)cc3)nn2)cc1	i	0.56
92	Cc1nn(-c2ccccc2)c2sc(-c3noc(COc4ccccc4)n3)cc12	i	2.5
93	CCCCNc1c(C(=O)OCC)c(C)nc2c1cnn2CC	i	-1&0.25&0.65
94	O=c1[nH]c2ccc(S(=O)(=O)Nc3ccc(Br)cc3)cc2s1	i	-0.81
95	CCC(CC)C(=O)N1CCN(C(=O)c2cc3cc(Br)ccc3[nH]2)CC1	i	0.78
96	CCc1cccc(N(C)C(N)=Nc2cccc3ccccc23)c1	i	-0.81
97	O=C(CCCCCN1CCN(c2ccccc2-c2ccccc2)CC1)NC1CCCc2ccccc21 (stereo not given)	i	0.93
98	CCOC(=O)c1c[nH]c2cc(OC)c(OC)cc2c1=O	i	0.55
99	COc1ccc(Cn2nc3c(S(=O)(=O)N4CCOCC4)cccn3c2=O)cc1	i	-1.6
100	CCSc1ncc(Cl)c(C(=O)N(Cc2ccc(CC)cc2)C2CCS(=O)(=O)C2)n1 (stereo not given)	i	-0.77
101	Cc1nc(Nc2ccc3c(c2)OCCO3)cc(-c2ccccc2)n1	i	0.77
102	Fc1ccc(F)c(CN2CCCC2c2ccc(Cl)cc2)c1 (stereo not given)	i	0.35
103	O=C(Nc1cccc(F)c1)C1CCCN(c2nc3ccccc3nc2C(F)(F)F)C1 (stereo not given)	i	0.39
104	CCCNc1cc(C)nc2c(-c3ccc(F)cc3)c(C(F)(F)F)nn12	i	1
105	Cc1ccc(C)c(N2CCN(S(=O)(=O)c3ccc4[nH]c(=O)ccc4c3)CC2)c1	i	1.4
106	Cc1ccccc1-c1cc2n(C)c(C)c(CCC(=O)NC3CCCCC3)c(=O)n2n1	i	-1
107	O=C(Nc1ccc2c(c1)OCCO2)c1cccc(C(=O)Nc2ccc3c(c2)OCCO3)n1	i	-0.56
108	O=c1n(Cc2cccc(F)c2)nc2c(S(=O)(=O)N3CCOCC3)cccn12	i	0.47
109	Cc1cc(C)c(S(=O)(=O)Nc2cccc(C(=O)N3CCCC(C(=O)NCCC(C)C)C3)c2)c(C)c1 (stereo not given)	i	0.16
110	Cc1nn(C)c(C)c1S(=O)(=O)N1CCN(C(=O)c2cncc(Br)c2)CC1	i	0.86

# Part of the list above, with each value named:
94	O=c1[nH]c2ccc(S(=O)(=O)Nc3ccc(Br)cc3)cc2s1
  Anaer choline gr: i	Anaer choline gr early: -0.81
95	CCC(CC)C(=O)N1CCN(C(=O)c2cc3cc(Br)ccc3[nH]2)CC1
  Anaer choline gr: i	Anaer choline gr early: 0.78
96	CCc1cccc(N(C)C(N)=Nc2cccc3ccccc23)c1
  Anaer choline gr: i	Anaer choline gr early: -0.81

# Source: PubChem (ICCB-Longwood Screening Facility, Harvard Medical School)
